Screening data as filed in PubChem BioAssay.
NPYLR7 ag: agonists of mosquito NPYLR7 receptor, primary screen, cell-based, Aedes aegypti, calcium fluorescence, mosquito biting behavior; Aedes aegypti neuropeptide Y-like receptor 7 (NPYLR7); 270,000 tested, 0.15% active; activation, % at 10 µM; AID 1259423, 2018; HEK293T NPYLR7/Galpha15, GCaMP6s calcium fluorescence; in the data active means activation above about 40%;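 further: 0% = vehicle and 100% = reference agonist at the receptor; some compounds past the cut are filed as inactive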
NPYLR7 ag max-min: recorded beside NPYLR7 ag, whose call it bears; activation, %; measured here: Max-Min RFU normalised activation; some inactives read as strong as hits;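 span of the calcium signal over five minutes; 0% = vehicle and 100% = native peptide agonist; compound fluorescence can raise it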
An asterisk follows results filed as active; & = joins results of further samples. Not all compounds are listed; rates above refer to the full screens.

SMILES	NPYLR7 ag	NPYLR7 ag max-min
Cc1ccc(C2CCCC2N(C)c2c(C#N)c(=O)n(C)c(=O)n2C)cc1 (stereo unspecified)	1	0
CC1(C(=O)Nc2cccc3c2CCCC3)CCN1C(=O)C/C=C/c1ccccc1 (stereo unspecified)	-7	1
C[C@H](C(=O)NCC(C)(C)C)N1Cc2ccc(-c3ccnn3C)nc2C1=O	-15	-15
CC(Oc1ccccc1F)C(=O)NNS(=O)(=O)c1ccc(F)c(Cl)c1 (stereo unspecified)	-2	-2
COC(=O)C1=C(O)/C(=C\c2ccc(OC)cc2O)SC1=Nc1ccc(C)cc1	12	9
CC1C=CCC2C(=O)N(c3ncn[nH]3)C(=O)C12 (stereo unspecified)	11	10
Cc1cn2c3c(=O)n(CCCc4ccccc4)c(=O)n(C)c3nc2n1CCCO	-2	4
Cc1c(C(=O)NCc2ccccc2C(F)(F)F)sc(=O)n1Cc1ccc(F)cc1	-8	-4
NC(=O)Cn1c(CO)c[nH]c1=S	-1	-4
CSCc1cccc(NS(=O)(=O)c2cn[nH]c2)c1	-4	10
COc1ccccc1Cc1noc(-c2ccc(C#N)cc2)n1	-1	-4
CCOC(=O)[C@H]1[C@@H](O)C(=O)N(Cc2ccccc2)C12CCNCC2	4	17
O=C(c1cnn2c(C(F)(F)F)cc(-c3ccc4c(c3)OCO4)nc12)N(Cc1ccccc1)Cc1ccccc1	-4	-7
N=C(N)Sc1cn(CCNC(=O)c2ccc(Cl)cc2Cl)c2ccccc12	-7	-12
Cc1cc(C)nc(SCc2cc(=O)c(OC(=O)c3cc(Cl)ccc3Cl)co2)n1	-11	-7
Cc1c(C)n2c3c(=O)n(Cc4ccc(F)cc4)c(=O)n(C)c3nc2n1CCCN1CCOCC1	4	1
CNS(=O)(=O)c1cccc(S(=O)(=O)NCC23CC4CC(CC(C4)C2)C3)c1	-1	29
O=[N+]([O-])c1cccc(OCCCNC(=S)Nc2c(Cl)cccc2Cl)c1	-5	-10
COc1ccc(OCc2nc(C(=O)NC(c3ccccn3)C(F)(F)F)co2)cc1 (stereo unspecified)	3	1
O=[N+]([O-])c1cccc(C2c3cccn3CCCN2Cc2cc(Cl)ccc2O)c1 (stereo unspecified)	13	14

Full records as entered above. Values in the order: NPYLR7 ag, NPYLR7 ag max-min
COC(=O)C1=C(O)/C(=C\c2ccc(OC)cc2O)SC1=Nc1ccc(C)cc1 is entered as 12, 9
CNS(=O)(=O)c1cccc(S(=O)(=O)NCC23CC4CC(CC(C4)C2)C3)c1 is entered as -1, 29
COc1ccccc1Cc1noc(-c2ccc(C#N)cc2)n1 is entered as -1, -4
CC(Oc1ccccc1F)C(=O)NNS(=O)(=O)c1ccc(F)c(Cl)c1 (stereo unspecified) is entered as -2, -2
CSCc1cccc(NS(=O)(=O)c2cn[nH]c2)c1 is entered as -4, 10

Looked up one by one from above:
SMILES	NPYLR7 ag	NPYLR7 ag max-min
O=C(c1cnn2c(C(F)(F)F)cc(-c3ccc4c(c3)OCO4)nc12)N(Cc1ccccc1)Cc1ccccc1	-4	-7
CC(Oc1ccccc1F)C(=O)NNS(=O)(=O)c1ccc(F)c(Cl)c1 (stereo unspecified)	-2	-2
CC1C=CCC2C(=O)N(c3ncn[nH]3)C(=O)C12 (stereo unspecified)	11	10

The list continues:
SMILES	NPYLR7 ag	NPYLR7 ag max-min
CC1(C(=O)NC2CCN(Cc3ccccc3)CC2)CCN1Cc1csc2ccccc12 (stereo unspecified)	11	5
NC(=O)c1cnc(NC(=O)c2cc(S(=O)(=O)N3CCCCC3)ccc2N2CCOCC2)s1	13	13
O=C(CN1CN(c2ccccc2)C2(CCN(C(=O)Nc3ccccc3C(F)(F)F)CC2)C1=O)N1CCOCC1	23	33
CCOC(=O)CC(C)N=c1scc(-c2ccc(OC)cc2)n1C1CCN(C(=O)OCC)CC1 (stereo unspecified)	-3	-9
C=CCNC(=O)c1ccc(-c2cc(OC)ccc2F)o1	10	10
N#C/C(=C/c1c(F)cccc1F)S(=O)(=O)c1cc(Cl)ccc1Cl	5	-1
COc1cc(C)ccc1-n1c(CCC(=O)NCCC2CCCN2C)cc2c1-c1ccccc1OC2 (stereo unspecified)	3	-1
Cc1cccc(CN(C(=O)c2ccc(F)cc2)C2CCC(NC(=O)C3CCN(C(=O)Cc4cccs4)CC3)CC2)c1 (stereo unspecified)	21	31
CCOC(=O)N1CCN(C(=O)c2cnn3c(C(F)(F)F)cc(-c4ccc(C)cc4)nc23)CC1	-2	0
CCOC(=O)CNC(=O)NC1CC(=O)N(Cc2ccccc2Cl)C1 (stereo unspecified)	2	0
O=C(c1ccco1)N1CCN(c2nc3ccsc3c(=O)s2)CC1	-3	-1
CCS(=O)(=O)c1ccc2c(c1)N(Cc1ccc3c(c1)OCO3)C(=O)C(C)O2 (stereo unspecified)	1	-2
COc1cccc(C(=O)N2CCN(c3cc(Oc4ccc(F)cc4Cl)ncn3)CC2C)c1 (stereo unspecified)	7	10
Cc1cc(=O)c(C(=O)N(C)CC(=O)Nc2c(Cl)cccc2Cl)nn1-c1ccccc1F	-1	31
CC(C)c1ccc(Nc2nccc3c2ncn3Cc2ccccc2)cc1	-6	-6
O=C(c1ccc(Cl)cc1Cl)N1CCN(C(C(=O)N2CCOCC2)C2CCCC2)CC1 (stereo unspecified)	-4	-3
COCCNC(=O)Cn1nc2c(c1NC(=O)c1ccc(OC)cc1OC)CSC2	-4	2
COc1ccc(OC(=O)c2ccc(Cl)cc2)cc1	1	14
COc1ccc(C(=O)N(CCC(C)C)CC(=O)N(Cc2cccn2Cc2ccccc2)C2CCCCC2)cc1	1	7
COC(=O)c1ccc2c(=O)n(CC(O)c3cc(F)ccc3F)c(C)nc2c1 (stereo unspecified)	3	2
NC(=O)NC(CC(=O)NC12CC3CC(CC(C3)C1)C2)c1ccccc1 (stereo unspecified)	1	-3
COc1cc(NC(=O)C2COc3ccccc3O2)cc(OC)c1OC (stereo unspecified)	-3	-3
COc1cccc2c1oc(=O)c1c(=O)nc3n(c12)CCS3	19	8
Cc1nn(C)cc1CN(C)Cc1c(C(=O)N(C)Cc2ccccc2)nc2ccccn12	4	0
COc1ccc(OC)c2sc(N(Cc3ccco3)C(=O)c3cc(C)n(C)n3)nc12	6	4
O=C(O)c1cccnc1SC1CC(=O)N(c2ccc(O)cc2)C1=O (stereo unspecified)	-11	-19
CCOc1ccc2c(c1)-c1c(sn(-c3ccc(OC)cc3)c1=S)C(C)(C)N2	3	1
Cc1c(C(=O)N2CCN(S(=O)(=O)c3ccccc3)CC2)cnn1-c1ccccc1	2	2
COc1ccccc1/C=C/C=C1\N=C(c2ccccc2)OC1=O	-4	-5
COC(=O)C1CN(C(C)c2ccc(F)c(F)c2)C[C@@H](C)O1 (stereo partly specified)	4	5
Cc1cnc(CN(C)C(=O)CC(c2ccccc2)c2ccc(Cl)cc2)[nH]1 (stereo unspecified)	16	10
COc1cccc(C(=O)N=c2sc(C)cn2Cc2ccccc2C(=O)O)c1	20	7
Cc1n[nH]c(=O)nc1NCc1cccnc1	-10	-16
COc1ccc(N2CCN(C(=O)c3nn(-c4ccccc4)c(=O)cc3OC)CC2)cc1	4	3
O=C(NC(C(=O)N1CCOCC1)C1CCN(C(=O)c2ccc(Cl)cc2)CC1)c1ccc(F)cc1 (stereo unspecified)	1	8
CN(c1ccccc1)N1CC(C(=O)NC(c2ccccc2)c2ccccc2)CC1=O (stereo unspecified)	-8	-9
COc1ccc(C=Nn2c(-c3ccc(Cl)cc3)csc2=N)cc1	3	3
Clc1ccc(C2CC(c3ccc4c(c3)OCO4)Nc3ncnn32)cc1 (stereo unspecified)	20	13
O=C(CCc1ccc(S(=O)(=O)N2CCCCCC2)cc1)Nc1cc(F)cc(F)c1	8	12
CC1(c2ccco2)NC(=O)NC1=O (stereo unspecified)	3	11
CSc1ccccc1OCc1cc(C(=O)NCCc2nc(C)c(C)s2)no1	-5	-9
O=C(NCC(CO)Cc1cccs1)c1c(O)cccc1O (stereo unspecified)	-5	-7
CCc1ccccc1CN1CCCn2cccc2C1c1ccc(OC)cc1 (stereo unspecified)	2	11
Clc1ccc(CO/N=C(/Cn2ccnc2)c2ccc(Cl)cc2Cl)c(Cl)c1	-9	-9
CCCNC(=S)N(Cc1ccncc1)c1ccc2c(c1)OCO2	12	9
CCOc1ccc2nc(SCC(=O)Nc3ccccc3F)sc2c1	-8	-14
O=C(Nc1nc2ccc([N+](=O)[O-])cc2s1)c1cccc(NS(=O)(=O)c2ccc(Cl)cc2)c1	4	2
NCCCc1nc2ccccc2s1	5	5
C=CCN(Cc1ccc(SC)cc1)C(=O)C1CCNCC1	8	8
O=C1NCC2(CCCN(C(=O)c3ccc(-n4cnnc4)cc3)CC2)O1 (stereo unspecified)	10	9
NC(=O)N1N=C2/C(=C\c3ccccc3)CCCC2C1c1ccccc1 (stereo unspecified)	1	-1
CCCc1cnc(-c2ccc(OC)cc2C)nc1	6	0
O=C(Nc1ccc(Oc2cccnc2)cc1)C1CCCCN1Cc1cccc(F)c1F (stereo unspecified)	-8	-12
COc1ccc(OC)c(Cn2cnc3ncccc3c2=O)c1	3	-12
CCc1nc(C)c(C(=O)N(C)Cc2cc(C(C)(C)C)n[nH]2)o1	-5	-9
O=C(CCn1ccc(=O)[nH]c1=O)N1CCN(c2ccc(-c3cccs3)nn2)CC1	0	15
COc1ccc(N2CCN(c3ncc4c(n3)CC(C)CC4=O)CC2)cc1 (stereo unspecified)	-1	38
Cc1cc(C)n(C)c(=O)c1C(=O)NCc1cc(CC(C)C)on1	17	2
C=C(Cl)c1c(Cl)cc(C)oc1=O	-7	-18
C=CCCC(O)CN(Cc1ccccc1)Cc1c(-c2ccccc2)nn(C)c1Oc1ccc(C)cc1 (stereo unspecified)	25	22

The final 7 compounds of the section before are carried over, then new ones follow:
SMILES	NPYLR7 ag	NPYLR7 ag max-min
COc1ccc(OC)c(Cn2cnc3ncccc3c2=O)c1	3	-12
CCc1nc(C)c(C(=O)N(C)Cc2cc(C(C)(C)C)n[nH]2)o1	-5	-9
O=C(CCn1ccc(=O)[nH]c1=O)N1CCN(c2ccc(-c3cccs3)nn2)CC1	0	15
COc1ccc(N2CCN(c3ncc4c(n3)CC(C)CC4=O)CC2)cc1 (stereo unspecified)	-1	38
Cc1cc(C)n(C)c(=O)c1C(=O)NCc1cc(CC(C)C)on1	17	2
C=C(Cl)c1c(Cl)cc(C)oc1=O	-7	-18
C=CCCC(O)CN(Cc1ccccc1)Cc1c(-c2ccccc2)nn(C)c1Oc1ccc(C)cc1 (stereo unspecified)	25	22
Cc1cc(C)cc(N(C)C(=O)CCCC(=O)NC(C)C)c1	16	11
CCN1CCN(CC(=O)N2N=C(c3ccc(OC)cc3OC)CC2c2ccccc2Cl)CC1 (stereo unspecified)	-2	5
Cn1c(=O)n(Cc2ccccc2)c(=O)c2c1nc(SCCO)n2Cc1ccccc1	-7	11
Cc1csc(NC(=O)c2ccc(S(=O)(=O)N3CCOCC3)cc2)n1	-1	10
Cc1c(CN(C)Cc2c(-c3ccccc3)nc3ccccn23)cnn1C	17	13
COc1cc(F)ccc1-c1cc(N)ccn1	1	-5
CN(CCN1CCCCCC1)C(=O)C(=O)c1cccnc1	-6	-9
O=C(OCC(=O)c1cccs1)c1ccc(Br)o1	1	7
CCC(C)N(Cc1ccc(OC)c(OS(=O)(=O)c2cccc(C(F)(F)F)c2)c1)C(=O)N(C)C (stereo unspecified)	-10	2
Cc1ccc(C2=Nc3ncnn3C(c3ccc(Br)cc3)C2)cc1C (stereo unspecified)	2	0
O=C(NCC(=O)N1CCCc2ccccc21)C1CC1c1ccco1 (stereo unspecified)	-23	-25
Cn1cc(CCC(=O)NCc2cccnc2Oc2ccc(F)c(F)c2)cn1	7	4
CNC(=O)NC(=O)C(C)OC(=O)CSCc1cccs1 (stereo unspecified)	6	2
O=S(=O)(NCc1cccnc1-n1cncn1)c1cccc2nsnc12	6	1
Cc1c(N(C)CS(=O)(=O)O)c(=O)n(-c2ccccc2)n1C	0&-5	-2&-9
COc1ccc(NC(=O)Nc2cccc(-n3nc(OC(C)C)nc3-c3cccs3)c2)cc1	0	8
COc1ccc(CCN(C)C(=O)COc2cccc(C#N)c2)cc1OC	1	1
CN(CCn1ccc2ccccc21)C(=O)[C@@H]1C[C@@H]2C=C[C@H]1C2	0	0
O=C1CC(c2cn[nH]c2C(=O)O)c2cnn(-c3ccccc3)c2N1 (stereo unspecified)	11	3
Cc1ccc(NC(=O)C(Cc2ccccc2)N2CC3=C(C2=O)C(c2ccccc2Cl)NC(=O)N3C)cc1C (stereo unspecified)	0	3
O=C(c1cn(CC2CCCO2)cc2c(=O)n(-c3ccccc3)nc1-2)N1CCCC1 (stereo unspecified)	7	6
O=C(CSCCO)Nc1ccc(Cl)c(Br)c1	-5	-7
CC(C)(CN1CCCn2cncc2C1)N1CCOCC1	1	2
CC(C)(CNCc1cccs1)c1ccc2c(c1)OCO2	13&-2	9&-2
CCN(Cc1ccncc1)C(=O)CCC(=O)Nc1ccc(F)c(Cl)c1	-2	-10
Cc1cc(OCc2cccc(C#N)c2)ccc1NC(=O)N1CCCC1	3	1
C=CCNC(=S)NNC(=O)CCc1ccc(C)o1	9	14
CCCCN(CC(=O)N1CCc2sccc2C1c1ccc(Cl)cc1)C(=O)CSc1ccccc1 (stereo unspecified)	-2	7
Cn1ccnc1CN(C(=O)Cc1noc2ccccc12)C1CC1	9	7
CCn1c(O)c(C=NC2CCCCCC2)c(=O)n(CC)c1=S	-4	-3
COc1cccc(CN(C)C(=O)c2ccc3nc(C4CCCCC4)oc3c2)c1	2	1
Cc1ncc(CO)c(CN2CCN(CCCOC(c3ccc(Cl)cc3)c3ccc(Cl)cc3)CC2)c1O	3	11
Cn1c(N)c(C(=O)CSc2nnc(Cc3cccs3)n2C2CC2)c(=O)n(C)c1=O	-3	-2
O=C(NCC1CC1)c1csc([C@@H]2O[C@H](CO)[C@H](O)[C@H](O)[C@H]2O)n1	4	1
CCOCCn1c(CN(C)Cc2ccccc2)nc2c1c(=O)n(C)c(=O)n2C	5	1
